NPYLR7 ag – agonists of mosquito NPYLR7 receptor, primary screen, cell-based, Aedes aegypti, calcium fluorescence, mosquito biting behavior. 270,000 tested, 0.15% active. AID 1259423, 2018. activation, % at 10 µM. HEK293T NPYLR7/Galpha15, GCaMP6s calcium fluorescence; in the data active = activation above about 40%;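 also: 0% = vehicle and 100% = reference agonist at the receptor; some compounds past the cut are filed as inactive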
NPYLR7 ag max-min – further read-out of NPYLR7 ag, marked with its call; activation, %; measured here: Max-Min RFU normalised activation; some inactives read as strong as hits;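 span of the calcium signal over five minutes; 0% = vehicle and 100% = native peptide agonist; compound fluorescence can raise it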
An asterisk follows results filed as active; & = joins results of further samples. Only part of the results is shown; count on the stated rates, not on these rows.

Values run as follows: NPYLR7 ag	NPYLR7 ag max-min
1: Cc1nc2n(n1)C(=O)C(C(c1ccco1)N1CCc3ccccc3C1)S2 (configuration not stated)
    -13	-11
2: N#Cc1ccccc1CO[C@]1(C(=O)NCC2CC2)CC(OCc2ccc(C(F)(F)F)cc2)[C@H](O)[C@H](O)C1 (some centres not stated)
    7	12
3: Cc1ccsc1C(=O)N1CCCC(C(=O)c2cccc(Cl)c2)C1 (configuration not stated)
    -5	-8
4: CCOC(=O)C1CCCCN1CC(=O)N1N=C(c2ccc(OC)cc2)CC1c1ccc(Cl)cc1 (configuration not stated)
    12	11
5: CCCS(=O)(=O)NCCc1csc2nc(-c3ccc(F)cc3)nn12
    2	3
6: Cc1ccnc(CC(C)N(C)C(=O)c2cccc(=O)[nH]2)c1 (configuration not stated)
    6	7
7: Cc1ccc(-n2nc3c([n+]2[O-])CCc2nonc2-3)cc1
    -13	-19
8: Brc1ccc(C2=Nc3ncnn3C(c3cccc4ccccc34)C2)cc1 (configuration not stated)
    10	4
9: CCn1nc(C(C)C)cc1C(=O)N1CCC(O)(CN(C)C)C1 (configuration not stated)
    9	7
10: O=C(c1scc2c1OCCO2)N1CCc2c([nH]c3ccccc23)C1c1ccccn1 (configuration not stated)
    6&19	4&15
11: O=C1c2cccc3cccc(c23)N1CO
    9	17
12: Cc1cccc(C(=O)Nc2sc3c(c2C#N)CCC3)c1
    -6	-13
13: c1ccc(-n2nc(C3CC3)nc2C2CCCCn3nnnc32)cc1 (configuration not stated)
    0	1
14: CCOC(=O)c1c(NC(=O)c2ccc3c(c2)OCO3)sc(C(=O)Nc2ccccc2OC)c1C
    -8	-3
15: CCC1(C)NC(=O)N(CC(=O)Nc2nc3ccccc3s2)C1=O (configuration not stated)
    0	7
16: COCC(C)NCc1cccc(-c2cn[nH]c2)c1 (configuration not stated)
    -1	9
17: COc1ccc(-n2cc(CN(C)CCc3c(C)n[nH]c3C)c(-c3cccc(F)c3)n2)cc1
    1	-4
18: CC1CCCCC1OCCNC(=O)Nc1ccc(CN2CCN(C)CC2)cc1 (configuration not stated)
    8	5
19: C#CCn1c2ccccc2c2nc3ccccc3nc21
    -8	-12
20: CC(C)CN1C(=O)c2ccccc2[C@H](C(=O)N2CCC3(CC2)C(=O)NCN3c2ccccc2)[C@@H]1c1ccoc1
    -10	-17
21: CCCOc1ccc2cc(C(=O)O)ccc2c1Cl
    -1	2
22: COCc1c(Br)c(C)nc(OCC(=O)N/N=C\c2cc([N+](=O)[O-])c(O)cc2O)c1C#N
    7	11
23: CCCNC(=O)CNC(=O)C1CC(c2cc(OC)ccc2Cl)=NO1 (configuration not stated)
    29	36
24: O=C(CC1C(=O)NCCN1Cc1ccccc1)NCCN1CCCCC1=O (configuration not stated)
    5	6
25: COc1ccccc1-n1c(SCc2nc(C(=O)NCCN3CCOCC3)cs2)nnc1-c1ccco1
    -11	-16
26: Oc1oc(-c2ccc(Br)cc2)nc1C=Nc1nc2ccccc2s1
    2	-4
27: COc1cccc(CSc2nnc(C)n2C2CCCCC2)c1
    5	4
28: CCOCCOC(=O)C1=C(C)N(CC)C(=O)NC1c1ccc([N+](=O)[O-])cc1 (configuration not stated)
    0	-3
29: Cn1cnnc1SCc1cc(=O)c(OC(=O)c2cccc(Br)c2)co1
    -4	-8
30: CC(C)Cc1ccc(C(C)C(=O)NCCO)cc1 (configuration not stated)
    -18	-29
31: CC(Cn1ccc2ccccc21)NC(=O)c1ccc(-n2cnnc2)cc1 (configuration not stated)
    -5	-5
32: Cc1nc(C2CCCN(S(=O)(=O)c3ccccc3Cl)C2)n[nH]1 (configuration not stated)
    -4&-7	-4&-11
33: CC(C)N(CC(=O)N(CCc1c[nH]c2ccccc12)Cc1ccc(C(C)(C)C)cc1)C(=O)c1ccc(Cl)cc1
    1	10
34: C=CCNC(=O)C(C1CCCC1)N1CCN(C(=O)c2ccccc2Cl)CC1 (configuration not stated)
    -10	-4
35: CC1(C)CC(=O)C=C(Nc2ccc(C(F)(F)F)cc2)C1
    6	5
36: CCOC(=O)c1nn(Cc2ccccc2)c2c1CN(Cc1cccc3ncccc13)CC2
    9	-4
37: C[C@@H]1CN(Cc2nc(Cc3ccccc3Cl)no2)C[C@H](C)O1
    3	0
38: COc1cccc(CN2CCC(C(=O)NC(c3ccccc3)c3ccc4ccccc4n3)CC2)c1 (configuration not stated)
    13	4
39: N#CC(C(N)=O)=C1N=C(N)c2ccccc21
    -3	-4
40: CN1CCN(NC(=O)CSc2nc3c(c(C(F)(F)F)n2)CCc2ccccc2-3)CC1
    3	-1
41: Cc1cc(C(=O)CN2C(=O)C(=O)N(CCC3=CCCCC3)C2=O)c(C)n1Cc1ccco1
    3	2
42: CCCc1cc(N2CCOCC2)n2nc(C)c(-c3ccccc3)c2n1
    1	14
43: NC(=O)c1cc(-c2ccccc2)sc1NC(=O)CCl
    -8	-11
44: Cc1nn(C(C)C)c(C)c1-c1c(-c2ccccc2)ncn1Cc1cccnc1
    0	1
45: COc1ccc(/C=C2\SC(=S)N(C(C)C(=O)O)C2=O)cc1OC (configuration not stated)
    -3	-11
46: COCCN(CC(=O)N(CCc1c[nH]c2ccccc12)Cc1ccc(C(F)(F)F)cc1)S(=O)(=O)c1ccc(C(C)(C)C)cc1
    15	11
47: O=C(c1csc(CSc2nnc(Cc3ccccc3)n2-c2cccc(Cl)c2)n1)N1CCN(c2cccc(C(F)(F)F)c2)CC1
    16	21
48: COCCn1c(C(C)NC(=O)c2ccc(Cl)c(Cl)c2)nc2ccccc2c1=O (configuration not stated)
    -10	2
49: CC(NC(=O)N1CCSC(C)(C)C1)c1cccc(-n2cncn2)c1 (configuration not stated)
    -23	-23
50: CCN1C(=O)N(C2Cc3ccccc3C2)C(=O)C12CCN(C/C=C/c1ccc(OC)cc1)CC2
    14	1
51: O=C(NCc1ccco1)Nc1nnc([C@@H]2C[C@H](O)[C@@H](CO)O2)s1
    24	14
52: O=C(CCC1CCN(Cc2cccc(Oc3ccccc3)c2)CC1)N1CCCC1
    16	5
53: N#CC(C(=O)CCCOc1cccc(Cl)c1Cl)c1ccccn1 (configuration not stated)
    20	10
54: COC(=O)C1=C(C)NC2=C(C(=O)CCC2)C1c1ccc(OC)c(OC)c1 (configuration not stated)
    -3	-8
55: O=S(=O)(c1cccnc1)N1CCN(c2ccc3nnc(-c4ccco4)n3n2)CC1
    2	6
56: CCOc1ccc(-n2c(CNC(=O)COc3ccccc3)nnc2SCC(=O)N2CCc3ccccc32)cc1
    11	10
57: CC(=O)O[C@@H](C)C(=O)N1CCN(C(=O)c2cc(-c3ccccc3)nc3ccccc23)CC1
    -8	-12
58: COc1cccc(Oc2cc(C)nc(SCc3ccc(C(C)(C)C)cc3)n2)c1
    20	14
59: CN1CCCn2nc(C(=O)NCCN3CCC(c4ccccc4)C3)cc2C1 (configuration not stated)
    3	-1
60: Oc1ccc(-c2cccc(-n3cnnc3)c2)cc1
    14	9

Next part
Values run as follows: NPYLR7 ag	NPYLR7 ag max-min
61: CCc1ccc(-c2nccn2-c2ccc(-n3cncn3)cc2)nc1
    1	-4
62: O=C(N1CCC1c1ccccc1)n1ccnc1 (configuration not stated)
    2	2
63: O=C(NCc1ccc(F)c(Cl)c1)c1ccc(Oc2nccnc2N2CCCCC2)cc1
    1	-1
64: CN1C(=O)CC(C(=O)Nc2ccc(C(=O)O)cc2)SC1=Nc1ccc2c(c1)OCO2 (configuration not stated)
    1	0
65: N#CCSc1nnnn1-c1ccc(O)cc1
    2	13
66: CC(=O)Nc1nc(Cn2ccc(=O)c3sccc32)cs1
    -2	-1
67: CSCC(=O)NCC(c1ccc(F)cc1)N(C)C(=O)CSC (configuration not stated)
    -2	-3
68: COCc1cc(C)nc(OCC(=O)N/N=C\c2ccc(OCc3ccc([N+](=O)[O-])cc3)cc2)c1C#N
    -8	-15
69: Brc1cc2[nH]cnc2c2ccccc12
    12	4
70: O=C1NC(=S)N/C1=C/c1ccc(Br)o1
    16	17
71: O=C(O)c1ccccc1C1CCN(C(=O)c2ccc(-n3cnnc3)cc2)C1 (configuration not stated)
    3	1
72: CSC1CCC(N(C)C(=O)c2ccc(N3CCC(O)CC3)cc2)C1 (configuration not stated)
    -3&5	-3&1
73: NC(=O)C[n+]1ccc(SCC(=O)O)cc1
    5	9
74: Cc1ccc(-n2c(SCC(N)=O)nc3c([nH]c4ccccc43)c2=O)cc1
    0	10
75: C=CCn1nnc(NC(=O)c2ccccc2)n1
    2	1

Whole records as entered above.
`O=C(NCc1ccc(F)c(Cl)c1)c1ccc(Oc2nccnc2N2CCCCC2)cc1` is entered as NPYLR7 ag = 1; NPYLR7 ag max-min = -1
`CC(=O)Nc1nc(Cn2ccc(=O)c3sccc32)cs1` is entered as NPYLR7 ag = -2; NPYLR7 ag max-min = -1

Continued.
Values run as follows: NPYLR7 ag	NPYLR7 ag max-min
76: CC(C)n1cc(C(=O)N2CCN(C(=O)C3CCCC3)CC2)c2nn(-c3ccccc3)c(=O)c-2c1
    -4	-7
77: CCCc1cc(C(=O)NCCn2c(C)nc3ccccc32)n[nH]1
    -6	-6
78: Cc1cc(C)c(OCCCCNCCO)c(C)c1
    -9	-16
79: CCC1CN(CCC(=O)NCC(c2cccnc2)N2CCOCC2)Cc2cc(OC)ccc2O1 (configuration not stated)
    -1	-6
80: Cc1cc(C)cc(COc2coc(CN3CCN(S(=O)(=O)c4c(Cl)cccc4Cl)CC3)cc2=O)c1
    5	8
81: O=C(NC1CC1)C1CCN(c2ccc(C(F)(F)F)cn2)CC1
    9	5
82: CC1CN(C2CCCCC2)CCC1=O (configuration not stated)
    0	2
83: O[C@@H]1CN(Cc2ccc3nonc3c2)CC[C@H]1c1ccc2c(c1)OCO2
    2	0
84: Cc1cc(C)cc(NC(=O)CSc2ccc(-c3sc(-c4cccnc4)nc3C)nn2)c1
    3	2
85: COc1ccc(S(=O)(=O)NCCCN(C)C)cc1OC
    -1	26
86: O=C(c1cccc2c1OCCO2)N1CCN(C2c3ccccc3CCc3ccccc32)CC1
    17	25
87: O=C(C1CCCN(S(=O)(=O)c2ccccc2[N+](=O)[O-])C1)N1CCCC1 (configuration not stated)
    -7	-9
88: O=P(O)(Oc1ccc(Cl)cc1)Oc1ccc(Cl)cc1
    -4	-3
89: c1ccc2c(c1)OCC(c1nn3c(Cn4nnc5ccccc54)nnc3s1)O2 (configuration not stated)
    1	-1
90: COc1coc(C(=O)Nc2nc3ccccc3s2)cc1=O
    8	0

18 entries already listed, sorted by number of heavy atoms, low to high.
Values run as follows: NPYLR7 ag	NPYLR7 ag max-min
70: O=C1NC(=S)N/C1=C/c1ccc(Br)o1
    16	17
73: NC(=O)C[n+]1ccc(SCC(=O)O)cc1
    5	9
75: C=CCn1nnc(NC(=O)c2ccccc2)n1
    2	1
78: Cc1cc(C)c(OCCCCNCCO)c(C)c1
    -9	-16
88: O=P(O)(Oc1ccc(Cl)cc1)Oc1ccc(Cl)cc1
    -4	-3
85: COc1ccc(S(=O)(=O)NCCCN(C)C)cc1OC
    -1	26
90: COc1coc(C(=O)Nc2nc3ccccc3s2)cc1=O
    8	0
81: O=C(NC1CC1)C1CCN(c2ccc(C(F)(F)F)cn2)CC1
    9	5
77: CCCc1cc(C(=O)NCCn2c(C)nc3ccccc32)n[nH]1
    -6	-6
72: CSC1CCC(N(C)C(=O)c2ccc(N3CCC(O)CC3)cc2)C1 (configuration not stated)
    -3&5	-3&1
87: O=C(C1CCCN(S(=O)(=O)c2ccccc2[N+](=O)[O-])C1)N1CCCC1 (configuration not stated)
    -7	-9
74: Cc1ccc(-n2c(SCC(N)=O)nc3c([nH]c4ccccc43)c2=O)cc1
    0	10
71: O=C(O)c1ccccc1C1CCN(C(=O)c2ccc(-n3cnnc3)cc2)C1 (configuration not stated)
    3	1
89: c1ccc2c(c1)OCC(c1nn3c(Cn4nnc5ccccc54)nnc3s1)O2 (configuration not stated)
    1	-1
84: Cc1cc(C)cc(NC(=O)CSc2ccc(-c3sc(-c4cccnc4)nc3C)nn2)c1
    3	2
86: O=C(c1cccc2c1OCCO2)N1CCN(C2c3ccccc3CCc3ccccc32)CC1
    17	25
76: CC(C)n1cc(C(=O)N2CCN(C(=O)C3CCCC3)CC2)c2nn(-c3ccccc3)c(=O)c-2c1
    -4	-7
80: Cc1cc(C)cc(COc2coc(CN3CCN(S(=O)(=O)c4c(Cl)cccc4Cl)CC3)cc2=O)c1
    5	8

(cont.)
Values run as follows: NPYLR7 ag	NPYLR7 ag max-min
91: O=C(O)c1ccccc1CN1CCN(C23CC4CC(CC(C4)C2)C3)CC1
    -3	-5
92: Cc1ccc(C(=O)NN2C(=O)C3C(C2=O)C2C=CC3C23CC3)cc1 (configuration not stated)
    2	1
93: CCn1c(C)c(C)n2c3c(=O)n(CC(C)=O)c(=O)n(C)c3nc12
    -2	12
94: Cc1ccc(N(CCCCN2C(=O)c3ccccc3C2=O)C(=O)c2ccc(S(=O)(=O)N(C)C)cc2)cc1
    -6	-11

High-throughput results deposited in PubChem by Fisher Drug Discovery Resource Center.
